Compound activity (PubChem BioAssay)
VACV mCherry inh: qHTS for Stage-Specific Inhibitors of Vaccinia Orthopoxvirus: mCherry Reporter Primary qHTS. Potency, µM (titrated, usually from 36.5 µM), inactives show top-dose activity change, negative = inhibition, most hits filed as inhibitors. Vaccinia virus mCherry reporter infection, fluorescence; about a quarter of the inactives have no number. 0.63% of 310,000 active; active = well fitted inhibition curve with a large enough effect; inconclusive = small, poorly fitted or top-dose-only effect; inactive = no such curve, though single readings can be large or run the other way; tested in A549 cells; note: nearly all actives have a fitted effect of over 35% in size; inactives centre near -10
VACV Venus inh: qHTS for Stage-Specific Inhibitors of Vaccinia Orthopoxvirus: Venus Reporter Primary qHTS; 0.46% of 330,000 active; AID 720580, 2013; Vaccinia virus Venus reporter expression, fluorescence; Potency, µM (highest dose often 36.5 µM), inactives show top-dose activity change, negative = inhibition, usual class: inhibitors; active means well fitted inhibition curve with a large enough effect; inconclusive means small, poorly fitted or top-dose-only effect; inactive means no such curve, though single readings can be large or run the other way; tested in A549 cells; note: nearly all actives have a fitted effect of over 30% in size; inactives centre near -10
The depositor's hits bear a star; i = inactive; ? = inconclusive; / = not tested or not shown; & = joins results of further samples; [ ] = remark or other dose. % is set by controls: 0 for no effect and ±100 for the full control effect; potency is the fitted concentration of half-maximal effect.

SMILES	VACV mCherry inh	VACV Venus inh
CCOc1ncccc1C(=O)OCC(=O)c1cc(OC)c(OC)c(OC)c1	i	-8%
COC(=O)C1=C(c2ccc(Cl)c(C(F)(F)F)c2)C[C@@H]2CC[C@H]1N2C(=O)NCCO	i	-7%
COc1ccc(-c2cc(C(F)(F)F)n3nc(C(=O)N4CCCCC4)cc3n2)cc1	i	-6%
Cc1cc(/C=N/n2cnnc2)c(C)n1-c1ccc(OCc2ccc(Cl)cc2)cc1	?	-23%
[O-][N+]1=c2ccc(Nc3ccccc3)cc2=NC12CCCCC2	?	?
CCOC(=O)C1=CNS(=O)(=O)NC1c1ccc(C#N)cc1 (centres undefined)	-11%	-3%
CCOC(=O)N1CCN(C(=O)C(C)N(c2ccc(Oc3ccccc3)cc2)S(C)(=O)=O)CC1 (centres undefined)	/	-11%
Cc1cc(=O)oc2c(N)nccc12	0%	1%
COc1cc(OC)c(NC(=O)c2c(C)nn(-c3ccc(C)cc3)c2-n2cccc2)cc1Cl	-28%	-17%
CCc1cc2c(=O)[nH]c(Cc3ccccc3)nc2s1	/	?
COc1cccc(N2C(=O)c3cccnc3C2O)c1 (centres undefined)	i	0%
O=C(NCc1ccco1)c1nn2c(C(F)(F)F)cc(-c3cccs3)nc2c1Br	-5%	-22%
COc1nc(OC)nc(N2CCC(NC(=O)C(Cc3ccc(C(C)C)cc3)NC(C)=O)CC2)n1 (centres undefined)	-15%	-8%
CC(=O)[C@H]1CC[C@H]2[C@@H]3CC[C@H]4C[C@H](O)CC[C@]4(C)[C@H]3C(=O)C[C@]12C	i	-17%
Cc1cc(C)cc(Oc2c(C(F)(F)F)oc3c(CN4CCCC(C)C4)c(O)ccc3c2=O)c1 (centres undefined)	-5%	0%
COc1cc2c3c(c1)c(N=NC(N)=S)c(O)n3C(C)(C)C=C2C	?	?
CCCNC(=O)COC(=O)c1cccnc1Nc1ccccc1F	-22%	-20%
O=C(NC12CC3CC(CC(C3)C1)C2)C1CCCN1C(=O)Nc1ccccc1 (centres undefined)	15%	3%
Cc1cnc(NC(=O)CSc2nnc(Cc3ccccc3)o2)s1	-11%	-19%
CCOC(=O)c1ccccc1N	34%[activator]	-9%
CCOc1ccc(NC(=O)C2CC3CCC2C3)cc1 (centres undefined)	-11%	-5%
CCc1nnc(SCc2nc(-c3ccccc3F)oc2C)c2cc3sccc3n12	-6%	-6%
CCNC(=O)C1CCCN(C(=O)c2ccc(OC(F)F)cc2)CC1 (centres undefined)	30%[activator]	-8%
O=c1cc(CO)oc(C(Nc2ccccn2)c2ccccc2F)c1O (centres undefined)	i	-10%
Cc1cc(Cl)nc2nc(Cl)ccc12	25%	-9%
Cc1ccccc1CCN(C(=O)c1csnn1)C(C(=O)NC1CCCC1)c1ccco1 (centres undefined)	?	-20%
CNc1ccc(/C=C/C(=O)c2ccc3c(c2)OCCO3)cc1[N+](=O)[O-]	-25%	-8%
COc1ccc(CCN(C)C(=O)C23CC4CC(CC(Cl)(C4)C2)C3)cc1OC	-6%	-10%
CCOCCOC(=O)C(C)Oc1ccc(Oc2ncc(Cl)cc2Cl)cc1 (centres undefined)	-7%	-4%
CCOC(=O)c1c(C)oc2nc(C)nc(NCCc3ccc(OCC)cc3)c12	-24%	-24%
CC(=O)OC1CCC2C3CCc4cc(OP(=O)(N5CC5)N5CC5)ccc4C3CCC12C (centres undefined)	-1%	0%
Fc1ccc(CNC(=S)Nc2ccc(OC(F)F)cc2)cc1	-6%	-21%
O=C(CSc1nnc(-c2ccc3c(c2)OCCO3)o1)N1CCCC1	/	-44%
CCCC(=O)Nc1sc2c(c1C#N)CCCCC2	/	-23%
CC(=O)Nc1ccc(NC(=S)NC(=O)c2oc3ccccc3c2C)cc1	-3%	-11%
CC(=Nc1ccc2c(c1)CCC2)c1c(O)n(C)c(=O)n(C)c1=O	/	-15%
COc1cc2ncnc(N[C@H](C)c3ccccc3)c2cc1OC	-23%	?
COC(=O)N/N=C/c1cc(Cl)cc(Cl)c1OCc1ccc(F)cc1	i	-1%
Cc1cccc(C)c1NC(=O)CN1CCN(c2ccc(C(F)(F)F)cn2)CC1	12%	-11%
Cn1c(O)c(C=NCCc2c[nH]c3ccccc23)c(=O)n(C)c1=O	-14%	-3%
COc1cccc(/C=C/C(=O)Nc2cc(S(=O)(=O)N3CCOCC3)ccc2OC)c1	-25%	-18%
CCOC(=O)c1c(C)n(C)c2ccc(OC(=O)c3ccco3)cc12	/	-4%
CCCn1c(N2CCN(C(=O)NCc3ccccc3)CC2)nc2ccccc21	-7%	-15%
CC1CN(S(=O)(=O)c2ccc(C(=O)Nc3nc(-c4cc5ccccc5o4)cs3)cc2)CC(C)O1 (centres undefined)	?	-10%
CCOc1ccccc1N1CCN(C(=O)NCc2ccc(F)cc2)CC1	-18%	-10%

Reprinted at random: four entries already listed
SMILES	VACV mCherry inh	VACV Venus inh
CC1CN(S(=O)(=O)c2ccc(C(=O)Nc3nc(-c4cc5ccccc5o4)cs3)cc2)CC(C)O1 (centres undefined)	?	-10%
CC(=O)Nc1ccc(NC(=S)NC(=O)c2oc3ccccc3c2C)cc1	-3%	-11%
COc1cccc(/C=C/C(=O)Nc2cc(S(=O)(=O)N3CCOCC3)ccc2OC)c1	-25%	-18%
O=C(CSc1nnc(-c2ccc3c(c2)OCCO3)o1)N1CCCC1	/	-44%

Part of the list above, with each value named.
COC(=O)N/N=C/c1cc(Cl)cc(Cl)c1OCc1ccc(F)cc1
  VACV mCherry inh = i | VACV Venus inh = -1%

CC(=Nc1ccc2c(c1)CCC2)c1c(O)n(C)c(=O)n(C)c1=O
  VACV mCherry inh = / | VACV Venus inh = -15%

Cn1c(O)c(C=NCCc2c[nH]c3ccccc23)c(=O)n(C)c1=O
  VACV mCherry inh = -14% | VACV Venus inh = -3%

Cc1cccc(C)c1NC(=O)CN1CCN(c2ccc(C(F)(F)F)cn2)CC1
  VACV mCherry inh = 12% | VACV Venus inh = -11%

Going on with the list.
SMILES	VACV mCherry inh	VACV Venus inh
OCCC1CN(Cc2cccc(C(F)(F)F)c2)CCN1Cc1ccccc1 (centres undefined)	-5%	-4%
CC(C)(C)n1nnnc1C(c1cc2cc3c(cc2[nH]c1=O)OCO3)N1CCN(c2ccccc2)CC1 (centres undefined)	-14%	-13%
C/C(=C\CNc1ncnc2nc[nH]c12)CO	-12%	-8%
O=C(CCCC(=O)N(CC(=O)NC1CCCC1)C1CCCC1)Nc1ccccn1	/	3%
Cc1ccc(C)c(NC(=O)C(=O)NCCc2c[nH]c3ccccc23)c1	?	0%
COc1cc(-c2cc(OC)c3c(C)oc(C)c3c(=O)c2)ccc1O	-8%	-8%
O=C(Nc1ccc(S(=O)(=O)N2CCOCC2)cc1)c1ccc(Cl)c([N+](=O)[O-])c1	-12%	-24%
O=Cc1c(N2CCOCC2)nc2ccccn2c1=O	-5%	-13%
CCc1ccc(NC(=O)NCCN2CCc3ccccc3C2)cc1	-30%	?
CN(CC(=O)Nc1ccc(F)c(F)c1F)C(=O)CCN1C(=O)C2CC=CCC2C1=O (centres undefined)	i	4%
CCCCCCN1C[C@@H](n2cc(C3CC3)nn2)[C@H](O)C[C@@H]1c1ccc(Cl)cc1	-9%	-28%
O=C(N/N=C/c1cccnc1)c1cccc(F)c1	i	-3%
Cc1ccc2c(c1)nc(SCC(O)c1ccc(Br)cc1)n2C (centres undefined)	i	-13%
COc1ccc(C(=O)CN2C(=O)COc3ccccc32)cc1	0%	1%
CC(=O)Nc1cccc(C(=O)OCC(=O)N2CCN(C(=O)COC(=O)c3cccc(NC(C)=O)c3)CC2)c1	?	-10%
Cc1ccc(N2C(=O)c3ccc(C(=O)N4CCN(c5ccccc5F)CC4)cc3C2=O)cc1	0%	-15%
CCc1nc(C)cn1S(=O)(=O)c1ccc([N+](=O)[O-])cc1	-15%	-4%
CC(CN1CCCCC1)OC(=O)c1ccc(Cl)cc1 (centres undefined)	/	-5%
COCCNC(=O)c1ccc(NS(C)(=O)=O)cc1	-1%	-4%
CCn1c(=S)[nH]c2ccccc21	/	-15%
CSc1nc(-c2ccc(Cl)cc2)nn1S(=O)(=O)c1ccccc1	/	-19%
CCc1ccc(C2C3=C(CC(C)(C)CC3=O)OC3=C2C(=O)CC(C)(C)C3)cc1	i	-4%
CCc1c(C)sc(NC(=S)Nc2nc(C)cc(C)n2)c1C(=O)OC	i	-4%
CSCC[C@H](NC(=O)C1CCN(S(=O)(=O)c2ccccc2)CC1)C(=O)NC1CC1	i	-4%
O=C(CCCN1C(=O)/C(=C/c2ccc(F)cc2)SC1=S)Nc1ccc(C(=O)O)cc1	-12%	-8%
C=C(Br)Cn1c(CC)nc2ccccc21	-10%	-8%
CSc1cccc(NC(=O)c2ccco2)c1	-6%	-9%
O=C(CSc1ncc(-c2ccc(Cl)cc2)[nH]1)Nc1ccccc1F	-11%	-17%
C[C@@H]1CN([C@H](C)CO)C(=O)CCCn2nncc2CO[C@@H]1CN(C)C(=O)c1ccncc1	?	-12%
CC[C@H]1c2ccccc2[C@@H]2CC[C@H]1N2c1ccccc1	?	-6%

Copied from the list:
Value for `CSCC[C@H](NC(=O)C1CCN(S(=O)(=O)c2ccccc2)CC1)C(=O)NC1CC1` in VACV Venus inh: -4%
Value for `CC(CN1CCCCC1)OC(=O)c1ccc(Cl)cc1` (centres undefined) in VACV Venus inh: -5%
Value for `CCn1c(=S)[nH]c2ccccc21` in VACV Venus inh: -15%

Additional compounds follow:
SMILES	VACV mCherry inh	VACV Venus inh
COc1cc2c3cc1Oc1c(OC)c(OC)cc4c1C(Cc1cccc(c1)Oc1ccc(c(O)c1)CC3N(C)CC2)N(C)CC4 (centres undefined)	-10%	?
COC(=O)c1nn(-c2ccc(Oc3ccccc3)cc2)c(=O)cc1O	i	-12%
Cc1cccc(C=CC(=O)c2ccccc2)c1	-10%	-9%
CCCCOc1ccc(C2C(C(=O)c3ccc(C)o3)=C(O)C(=O)N2CC2CCCO2)cc1 (centres undefined)	-14%	-9%
COCCN1C=C2C(=O)C(C)(OC(=O)C3CCCC3)C(=O)C=C2C=C1c1ccsc1 (centres undefined)	-15%	-19%
O=C(Nc1cc2c(cc1Br)OCCCO2)c1ccccc1	i	-29%
Nn1c(=O)[nH]c2ccccc2c1=O	16%	4%
COc1ccccc1OCc1nn[nH]n1	i	-17%
CC(C)(C)c1ccc(C(=O)C2CCCN(C(=O)C3CCOCC3)C2)cc1 (centres undefined)	-4%	0%
Cc1ccc(C)c(OCCSc2nnc(-c3cccnc3)n2N)c1	-16%	-17%
COc1ccc(NC(=O)[C@@H]2CCCN2S(=O)(=O)c2ccc(Cl)cc2)cc1	0%	-7%
COc1cccc(C(=O)C(=O)c2cccc(OC)c2OC)c1OC	i	0%
CC(C)(C)OC(=O)C[C@H]1C/C=C\C[C@H](CC(=O)N(CCO)Cc2ccccc2)C(=O)NC[C@H](c2ccccc2)OC1=O	-2%	-26%
Cc1ccc2nc3c(cc(C(=O)NCC4CCCO4)c(=N)n3C3CCCC3)c(=O)n2c1 (centres undefined)	-17%	-24%
Cc1cc2nc(-c3cccc(Cl)c3)c(Cc3ccsc3)n2c(C)c1Br	11%	14%
CCCCN(CCCC)NC(=O)c1ccccc1	-8%	6%
O=C(O)C(=Cc1ccc([N+](=O)[O-])cc1)CCc1ccccc1	i	-2%
O=C(C1=C[C@H](C2CC2)C[C@H](OCc2ccc(CO)cc2)O1)N1CCN(Cc2ccc3c(c2)OCO3)CC1	-14%	?
Cc1ccc(NC(=O)Nc2ccccc2CC[N+](=O)[O-])cc1	-11%	-5%
CC(=O)c1cccc(-n2c(=O)c3c4c(sc3n(Cc3cccc(C)c3)c2=O)CN(C(C)=O)CC4)c1	-16%	-3%
COc1ccc(NC(=O)CN(C)C(=O)c2ccc(C)s2)cc1	/	2%
O=C(NCCCc1ccccc1)C1CCC(=O)N(Cc2ccc(Cl)cc2)C1 (centres undefined)	-13%	-20%
Cc1nn(-c2ccccc2)c2c1C(c1ccc([N+](=O)[O-])cc1)C(C#N)=C(N)O2 (centres undefined)	-17%	-16%
CN(C(=O)c1cnc(N2CCOCC2)c2ccccc12)c1ccccc1F	-5%	-15%
COc1cc(C(=O)OCC(=O)N(C)c2ccccc2)cc(OC)c1OC	-5%	-1%
O=C(Cn1ncc2c(Cl)cccc21)NCc1cccc(F)c1	-6%	-5%
CC(C)(C)CC(C)(C)N=C1Nc2ccccc2NC12C[C@H]1CCC(=O)N3CC[C@@H](C2)[C@@H]13 (some centres undefined)	-7%	-12%&-15%
CNc1ccc(-c2cccc(C(=O)N3CCOCC3)c2)cn1	32%[activator]	7%
CSc1nsc(SCC(=O)Nc2ccc(NC(C)=O)cc2)n1	-14%	-9%
COc1ccc(/C=C/C(=O)N(C)c2ccccc2C(=O)O)cc1	-2%	-5%
O=C(CSc1ncc2c(n1)-c1ccccc1N(Cc1ccc(Cl)cc1)S2(=O)=O)c1ccc(Cl)cc1	-9%	0%
CS(=O)(=O)N(CC(=O)NCc1ccc(Cl)cc1)C1CCCCC1	-21%	-11%
CCCS(=O)(=O)Nc1cccc(-c2nc3cccnc3s2)c1	-3%	-7%
COc1ccc(NC(=O)C(C)n2nc(-c3ccc(C)c(C)c3)ccc2=O)cc1OC (centres undefined)	-15%	-8%
COCCNC(=O)C1(C)CCCN(Cc2cccc(F)c2)C1 (centres undefined)	-17%	1%
COc1ccc([N+](=O)[O-])cc1NCc1ccccc1C	i	-18%

The order is random; about 0.88% have a hit in one of these screens.
